# Compound activity: PubChem, several laboratories
# MT1-MMP act inh – blockers of MT1-MMP proenzyme processing, primary screen, HT1080 RFP-PRO-GFP cells, GFP/RFP fluorescence. GFP/RFP ratio change, % at 20 µM. Matrix metalloproteinase-14 (Homo sapiens), P50281. GFP/RFP ratio fluorescence, overnight; percent of plate control window, DMSO zero. hit rate 0.061% among 360,000. AID 651647, 2012;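 active = GFP/RFP ratio change of at least 30% with cell ATP level not reduced by more than half and red fluorescence within 50% of control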; note: strong numbers were not always called active
#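 Test system: HT1080 RFP-PRO-GFP cells; Benchmarks: DMSO and RFP-L50D-GFP cell wells; Timing: cells overnight before dosing, compound overnight, 37 °C, 5% CO2; Compound: one 20 µM compound dose with 1% DMSO; Read-out: GFP/RFP fluorescence ratio.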
# CSC inhib – cancer stem cell viability inhibitors, primary screen, luminescence. cancer stem cell-like cells viability. inhibition, % at 7.5 µM. hit rate 1.1% among 300,000. AID 2717, 2010;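 active = mean at 75% or more and at least half the replicates too; inconclusive = mean and replicates disagree; tested in HMLE shEcad cells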;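 note: 0% = median of negative and 100% = median of positive control wells; the first replicate is given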
# PABP FP inh – PABP poly(A) RNA binding inhibitors, primary screen, biochemical, fluorescence polarization, uHTS | inhibition, % at 35 µM | hit rate 1% among 290,000 | AID 2014, 2009;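 active = 50% or more with normal probe brightness, or confirmed in later tests; inconclusive = above 50% with abnormal brightness, or retests that disagree; inactive = below 50% or failed in later tests; about a fifth of its hits are not listed in these tables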;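 note: calls also rest on retests at 20 µM and on dose response follow-up; controls were probe without protein and protein plus probe with vehicle; some compounds called inactive have numbers as strong as hits; many hits fall short of the cut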
# Yeast UUG start – modulators of yeast start codon fidelity, primary screen, whole organism, S. cerevisiae, single point, plate reader | S. cerevisiae UUG-firefly luciferase reporter, luminescence/redox ratio | activity score, % at 18.7 µM | hit rate 0.13% among 350,000 | AID 602363, 2012;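 active = replicate mean at a twofold rise or more, about +100% in these data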;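 note: firefly luciferase made from a UUG start codon reports start codon fidelity; reporter light over untreated wells divided by growth signal over untreated wells; some hits fall short of that in this replicate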
# HIV Env fusion – inhibitors of HIV-1 Env-driven cell-cell fusion, primary screen, HeLa-JRFL effector, CEM21 target cells, luciferase; inhibition, % at 12.3 µM; hit rate 1.1% among 360,000;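 active = mean replicate inhibition score of at least 50 and every replicate individually at or above 50; inconclusive = only one of the two criteria met; inactive = mean below 50 and not all replicates reaching 50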;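 note: 0% = plate neutral controls and 100% = maraviroc near 300 nM; one replicate is shown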
# eIF4H FP inh – human eIF4H binding inhibitors, primary screen, translation initiation inhibitor project, biochemical, uHTS, fluorescence polarization; Eukaryotic translation initiation factor 4H (Homo sapiens), Q15056; eIF4H fluorescence polarization binding assay; inhibition, % at 35 µM; hit rate 0.94% among 290,000; AID 2012, 2009;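 active = 50% or more with normal probe brightness, or confirmed in later tests; inconclusive = above 50% with abnormal brightness, or retests that disagree; inactive = below 50% or failed in later tests; about a fifth of its hits are not listed in these tables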;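 note: calls also rest on retests at 20 µM and on dose response follow-up; 0% = protein and probe with vehicle and 100% = probe without protein; strong numbers were not always called active; many hits fall short of the cut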
# Rce1 inhib – yeast Rce1p protease inhibitors, primary screen, biochemical, fluorescence, cell-free homogeneous. CAAX prenyl protease 2 (Saccharomyces cerevisiae (strain ATCC 204508 / S288c)), Q03530. yeast membranes, quenched prenylated peptide cleavage fluorescence. calls only. hit rate 0.27% among 290,000;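 active = fall in fluorescence gain of 50% or more versus controls, with final raw signal at or below 3038400; inconclusive = same 50% fall but final raw signal above 3038400; inactive = fall in fluorescence gain under 50%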;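 note: plate controls were neutral control wells for no effect and wells lacking membranes for full effect; tested at 10 µM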
# Target sequence (Q03530 whole entry, looked up): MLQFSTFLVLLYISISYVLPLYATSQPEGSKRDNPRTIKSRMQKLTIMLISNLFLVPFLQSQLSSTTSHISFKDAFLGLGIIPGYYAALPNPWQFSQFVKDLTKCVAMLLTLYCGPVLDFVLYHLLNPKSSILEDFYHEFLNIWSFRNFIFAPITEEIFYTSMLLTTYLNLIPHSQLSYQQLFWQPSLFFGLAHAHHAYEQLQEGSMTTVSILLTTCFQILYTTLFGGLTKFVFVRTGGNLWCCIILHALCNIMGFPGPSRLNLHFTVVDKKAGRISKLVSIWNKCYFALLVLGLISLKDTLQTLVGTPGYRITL
# eIF4H FP inh retest – also measured in eIF4H FP inh; calls as there; inhibition, %; compound at 20 µM; confirmation average;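 mean of two retest wells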
# PABP FP inh retest – further read-out of PABP FP inh, marked with its call; inhibition, %; compound at 20 µM; confirmation repeats;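 mean of two retest wells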
# MT1-MMP act inh RFP – further read-out of MT1-MMP act inh, marked with its call; RFP signal change, %; measured here: RFP expression control read;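 0 = vehicle wells; hits needed this value within 50% of zero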
# An asterisk follows results filed as active; i = inactive; u = inconclusive; x = no result given. A portion of the library. The share of hits here may be higher or lower than overall.
# Preview (2 entries):
SMILES,MT1-MMP act inh,MT1-MMP act inh RFP,CSC inhib,PABP FP inh,Yeast UUG start,HIV Env fusion,eIF4H FP inh,Rce1 inhib,others
CC[C@@H]1[C@H]2CCCC(=O)N3CC[C@@H](C[C@H]1O)[C@@H]23,0.1,0.0,1.7,x,-21.7,-9.4,x,i,
O=C(COc1ccccc1)c1cn(CC(=O)N2CCCC2)c2ccccc12,3.3,1.2,-11.7,0.7,-3.0,-0.9,-5.1,i,

# Main list, from the first entry:
SMILES,MT1-MMP act inh,MT1-MMP act inh RFP,CSC inhib,PABP FP inh,Yeast UUG start,HIV Env fusion,eIF4H FP inh,Rce1 inhib,others
CC[C@@H]1[C@H]2CCCC(=O)N3CC[C@@H](C[C@H]1O)[C@@H]23,0.1,0.0,1.7,x,-21.7,-9.4,x,i,
O=C(COc1ccccc1)c1cn(CC(=O)N2CCCC2)c2ccccc12,3.3,1.2,-11.7,0.7,-3.0,-0.9,-5.1,i,
CCOc1ncccc1C(=O)OCC(=O)NCc1cccs1,0.3,5.3,-0.5,x,-7.7,x,x,x,
CC(=C\c1ccco1)/C=C(\C#N)C(=O)NCCc1c[nH]c2ccccc12,-4.9,-1.7,4.0,3.6,x,0.2,13.0,i,
COc1ccc(CC(=O)NCC(=O)N/N=C/c2c[nH]c3ccccc23)cc1,-4.0,1.9,-13.7,9.6,-15.2,9.5,1.9,i,
CSCC[C@H](NC(=O)[C@H](Cc1ccccc1)n1c(=O)[nH]c2ccccc2c1=O)C(=O)N1CCC[C@H]1C(=O)O,-0.2,6.6,0.5,3.6,-5.7,x,-8.9,i,
COc1ccc(C(C)=O)cc1CC(=O)NCCCn1ccnc1,-0.7,-0.6,-16.6,-2.4,-10.3,-5.1,-4.9,i,
O=C(CC1SC(N2CCCCC2)=NC1=O)Nc1cccc(C(F)(F)F)c1 (stereo not drawn),7.9,-4.2,-9.1,5.5,-2.3,-118.8,-0.9,i,
CCN1CCN(CCNC(=O)Nc2ccc([N+](=O)[O-])cc2)CC1,3.0,2.8,1.2,9.2,0.2,-4.5,2.5,i,
Cc1ccccc1C(=O)NCCCn1ccnc1,-1.7,-0.3,-5.4,-10.5,-19.3,-333.9,0.4,i,
O=C(COC(=O)c1cccs1)c1ccccc1,-0.8,-1.3,-13.8,-2.7,-40.7,x,3.1,i,
O=C(C1=C[C@@H]2[C@H]3C(=O)N(c4ccccc4)C(=O)[C@H]3[C@@H](C(=O)c3ccc(Cl)cc3)N2C=C1)c1ccccc1,x,x,-3.7,-14.6,x,x,25.8,i,
CCNC(=O)C1(C)CCCN(CCOc2ccc(OC)cc2)C1 (stereo not drawn),3.7,5.7,x,x,-33.2,26.0,x,x,
CCn1nc(C)cc1C(=O)N1CCCC(C(=O)c2ccccc2SC)C1 (stereo not drawn),2.6,-13.4,-0.8,-2.5,12.8,-2.2,-13.9,i,
COc1ccc(OC)c(NS(=O)(=O)c2ccc(-c3coc(C)n3)cc2)c1,4.5,-4.6,-11.4,-3.2,-20.2,x,-5.0,i,
O=C(NCc1ccccn1)Nc1ccccc1C(F)(F)F,2.0,-0.4,-12.6,1.6,-3.4,24.4,3.2,i,
COc1ccc(Cl)cc1NC(=S)N1CCCC1,2.2,6.2,8.7,-17.7,x,-12.6,-7.5,i,
COc1ccc2[nH]c(C)c(C(=O)CN3CCN(C/C=C/c4ccccc4)CC3)c2c1,1.1,0.9,-14.4,-2.1,-14.8,-70.0,3.2,i,
Cc1ccc2c(c1)C1CN(C)CCC1N2CC(=O)N(C)c1ccccc1 (stereo not drawn),4.2,-5.4,-15.7,41.7,23.7,x,-1.7,i,
COc1ccc(NC(=S)N2CCN(C/C=C/c3ccccc3)CC2)cc1,3.3,1.0,0.3,3.1,x,3.2,3.8,i,
COc1ccc(CCNC(=O)c2ccc(CS(=O)(=O)c3ccc(Cl)cc3)o2)cc1OC,-5.9,-19.0,-0.2,6.6,17.3,43.1,1.7,i,
Cc1cc(C)n(/N=C/c2c[nH]c3ccccc23)c(=O)c1C#N,0.3,-0.8,-5.1,-7.9,-9.8,x,-2.6,i,
COc1cc(C(C)=O)ccc1OCC(=O)NCc1ccccc1CN1CCCC1,1.8,6.3,x,x,-14.5,-92.4,x,x,
Cc1[nH]c2ccccc2c1SCC(=O)N1CCCCC1,-0.9,0.1,-7.3,-10.9,x,-4.6,-4.4,i,
Cc1ccc(CNC(=O)C2CC(c3ccccc3[N+](=O)[O-])=NO2)cc1 (stereo not drawn),-2.1,2.6,-11.5,6.3,-5.1,-8.7,-3.0,i,
Cc1ccc(C(=O)Nc2cccc(NC(=O)c3cccs3)c2)c(C)c1,2.0,-7.3,10.8,-1.7,-4.5,0.7,4.9,i,
COCCN1C(=O)C(=O)/C(=C(/O)c2cccc(OC)c2)C1c1ccc(C)o1 (stereo not drawn),-0.2,2.1,-7.3,10.2,-16.2,3.3,-7.9,i,
O=C(CN1C(=O)NC2(CCOc3ccccc32)C1=O)c1ccc(F)c(F)c1 (stereo not drawn),-3.5,-0.8,-1.5,x,x,-0.1,x,i,
COC(=O)C(Cc1ccccc1)NCC(=O)Nc1cccc(Cl)c1C (stereo not drawn),-1.6,-1.2,-14.5,-0.1,16.1,9.7,-5.3,i,
O=C(NCc1ccc2c(c1)OCO2)c1ccc(NC(=O)C2CCCO2)cc1 (stereo not drawn),5.8,1.9,-11.6,-2.0,-11.7,-13.6,9.2,i,
COc1ccc(C(CNC(=O)C(CCSC)NC(=O)c2ccccc2Cl)N2CCCCC2)cc1 (stereo not drawn),-2.9,1.7,x,x,0.4,2.4,x,x,
C[C@H](NC(=O)Nc1cccc(Br)c1)C(=O)O,-2.1,4.5,-2.7,-0.9,-11.7,-12.4,-9.3,i,
Cc1c(N2C(=O)CSC2c2ccco2)c(=O)n(-c2ccccc2)n1C (stereo not drawn),1.4,4.2,2.4,12.0,-12.6,12.8,-7.6,i,
CC(=O)N1CCOc2ccc(S(=O)(=O)Nc3ccc(C)cn3)cc21,1.2,5.2,-16.2,5.8,-15.6,-11.1,15.2,i,
Cc1[nH]c(C)c2c(=O)[nH]ncc12,3.0,8.4,46.8,-2.6,x,8.9,-6.4,i,
O=c1[nH]nc(Cc2ccccc2)c2ccccc12,6.8,4.7,x,6.0,-14.0,-191.7,2.5,i,
Cc1cccc(N2CC(C(=O)Nc3ccc(S(=O)(=O)Nc4nccs4)cc3)CC2=O)c1C (stereo not drawn),3.7,3.9,-22.6,-4.0,-3.1,-8.0,-2.7,i,
N#C/C(=C\c1ccc(OCc2ccccc2)cc1)C(=O)Nc1ccc(C(=O)O)cc1,x,x,-12.1,-6.7,x,-34.4,45.6,i,
Cc1cc(C)cc(C(=O)NC(=S)Nc2ccc(Cc3ccncc3)cc2)c1,-8.3,-11.8,18.3,8.7,-27.5,-18.6,4.7,i,
CC1CN(CCCCN2C(=O)c3ccccc3C2=O)CC(C)O1 (stereo not drawn),1.4,6.0,x,4.7,-11.5,6.8,72.2,i,eIF4H FP inh retest=0.0;PABP FP inh retest=-5.3
CCn1nc(C(=O)NNC(=O)COc2ccccc2C)c2ccccc2c1=O,9.4,5.0,-5.8,-2.5,-2.5,u,2.4,i,
CC(C)N1CCC1(C)C(=O)Nc1nc2ccccc2[nH]1 (stereo not drawn),1.1,4.8,x,x,-17.6,-5.8,x,x,
O=C(C[n+]1ccccc1)N/N=C/c1ccccc1[N+](=O)[O-],-3.1,0.0,-15.4,-16.5,x,5.3,-11.6,i,
CN(CCCNC(=O)C1CCN(S(=O)(=O)c2cccc3nsnc23)CC1)Cc1ccccc1,-2.1,-0.1,-8.8,-3.2,-6.4,x,-6.8,i,
CCCCN(C)C(=O)c1nc2ccccn2c1CN1CCN(C(=O)c2cccs2)CC1,1.1,0.9,1.8,-5.7,x,-11.6,-8.9,i,
CCOC(=O)N1CCN(Cc2nc3ccc([N+](=O)[O-])cc3c(=O)n2-c2ccc(OC)cc2OC)CC1,-0.3,-0.5,-4.3,1.6,x,-7.7,-1.0,i,
COc1ccccc1Oc1ccccc1C(=O)O,-2.7,2.7,3.5,-10.2,-13.7,-17.7,-3.0,i,
CCCCn1c(/N=C/c2c[nH]c3ccccc23)nc2ccccc21,1.4,4.3,-16.4,-3.2,-5.8,x,-6.6,i,
O=C(CCNC(=O)c1ccc(Br)cc1)NC1CCCCCC1,-1.1,-3.5,5.9,x,-14.0,7.2,x,x,
O=C(CN1C(=O)NC2(CCCC2)C1=O)NNC(=O)c1ccccc1,1.9,1.6,-14.9,x,-8.2,18.9,x,i,
CCN(C(=O)CSc1nc2cc(Cl)ccc2c(=O)n1Cc1ccco1)C1CCS(=O)(=O)C1 (stereo not drawn),-1.0,-4.1,19.9,3.8,x,11.2,1.5,i,
Cc1ccc(S(=O)(=O)N(C)CC(=O)Oc2ccc(-c3nnco3)cc2)cc1,-1.3,0.3,-7.2,x,-3.1,0.2,x,i,
C=C(C)c1ccccc1,-1.6,2.6,-9.3,x,-6.7,x,x,x,
CC(=O)Nc1ccc(S(=O)(=O)N(C)CC(=O)OCC(=O)N(C)c2ccccc2)cc1,-3.9,3.7,5.4,0.6,-2.9,-4.9,-6.6,i,
CC(NC(=O)[C@H](C)NC(=O)[C@@H]1CSC2c3ccccc3C(=O)N21)c1ccccc1 (stereo partly drawn),-1.1,4.0,-11.8,-7.8,-18.2,-3.3,-17.0,i,
O=C(NC(=S)Nc1ncccn1)c1ccccc1Br,0.1,1.7,-30.0,2.7,-8.8,-5.8,-2.0,i,
CC(C)CCNC(=O)[C@@H](NC(=O)c1c(F)cccc1F)C(C)C,1.7,2.2,-20.2,-11.9,-22.7,-37.9,-5.8,i,
O=C(c1cccc(Cl)c1)N1CCN(Cc2ccccc2F)CC1,2.6,3.9,-11.9,15.8,-10.6,x,4.0,i,
CCOC(=O)C(=O)Nc1cccc(C(=O)OCC)c1,0.3,4.2,-6.9,-2.5,x,2.7,0.1,i,
CCc1ccc2[nH]c(=O)c(CN(CCCN3CCOCC3)C(=O)Nc3ccccc3)cc2c1,-4.5,1.8,5.2,-11.2,1.6,x,-3.8,i,

# (cont.)
SMILES,MT1-MMP act inh,MT1-MMP act inh RFP,CSC inhib,PABP FP inh,Yeast UUG start,HIV Env fusion,eIF4H FP inh,Rce1 inhib,others
O=C1CC(c2ccccc2)SC(N(c2ccccc2)c2ccccc2)=N1 (stereo not drawn),-0.8,1.6,x,0.7,x,14.3,-3.6,i,
CCn1cc(CN2CCc3c([nH]c4ccccc34)C2c2ccc(F)c(OC)c2)c(C)n1 (stereo not drawn),-3.1,-3.4,13.6,-7.4,x,19.9,3.5,i,
FC(F)(F)c1cccc(Cn2nnnc2-c2ccc(Cl)cc2)c1,1.3,-1.3,2.4,5.1,-7.5,-12.8,0.5,i,
O=C(CCC(=O)OCC(=O)c1ccc(C(F)(F)F)cc1)OCC(=O)c1ccc(C(F)(F)F)cc1,-2.2,3.1,-11.0,-4.0,-19.6,3.6,5.2,i,
